Proteasome disasm: blocks ATP-dependent breakdown of the yeast 26S proteasome. 24,000 tested, 0.2% active. anti-FLAG beads, GFP-proteasome disassembly, flow cytometry. inhibition of disassembly, % (no concentration beside the values). AID 751;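 active = above 40%; inconclusive = likely self-fluorescent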;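 note: plate controls were ATP control with full disassembly for no effect and ATP-gamma-S intact proteasomes for full effect; higher percent means more bead fluorescence retained so stronger block of disassembly; stock transfer was 100 nL into about 10 µL; wells with too few beads may also be inconclusive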
VCAM-1 up: enhancers of VCAM-1 display on endothelial cells, cell-based, plate reader, pooled HUVEC, TNFa stimulus (AID 455). HUVEC TNFa-induced VCAM-1 immunofluorescence, plate reader; numbers were filed only for top-ranked candidate wells. augmentation, % at 5 µM. 10,000 tested, 0.2% active;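 active = a compound raising TNF-alpha-driven VCAM-1 surface staining, with its hit status upheld on visual or statistical review; inactive = the rest, including hits rejected on review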;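 note: 0% = TNFa with vehicle and 100% = strongest image-checked hit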
* hit, by the source's call; i = inactive; ? = inconclusive; nt = no result given. Not all compounds are listed. The share of hits here may be higher or lower than overall.

Results follow in this order: Proteasome disasm | VCAM-1 up
> Cc1ccc(C2CC(=O)NC(SCC(=O)OCc3ccccc3)=C2C#N)o1 (configuration not stated)
  -1.1 | nt
> CCCCN(C)C(=O)c1coc(=O)c2ccccc12
  0.7 | nt
> Cc1ccccc1NC(=O)Nc1cccs1
  7.7 | nt
> COc1ccc(CCN2C(=O)CC(N3CCN(S(=O)(=O)c4ccccc4)CC3)C2=O)cc1 (configuration not stated)
  -2.9 | i
> CC(C)CNC(=O)C1CC(=O)OC12CCCCC2 (configuration not stated)
  -1.2 | i
> Cn1cccc1Cc1nnc(SCC(=O)Nc2ccc3c(c2)OCCO3)n1-c1ccc(F)cc1
  -0.3 | nt
> CN(C)C(=O)N1CCC(C(=O)NCc2ccccc2Cl)CC1
  0.6 | nt
> Cc1csc(SCC(=O)NC(=O)NCc2ccccc2)n1
  0.8 | i
> CCC(=O)N1CCc2cc(S(=O)(=O)NCCC(=O)N3CCc4ccccc4C3)ccc21
  1.6 | nt
> Cc1cc(C(=O)Nc2nnc(C(F)(F)F)s2)no1
  -3.1 | i
> O=C(Cn1c(=O)n(CC2CCCO2)c(=O)c2ccccc21)N1CCN(c2ccccc2)CC1 (configuration not stated)
  0.1 | nt
> S=C1SCN(Cc2ccccn2)CN1Cc1ccco1
  1.2 | nt
> NC(=O)CC12CC3CC(C1)CC(CC(N)=O)(C3)C2
  -0.7 | nt
> CC(C)CCNC(=O)NC(=O)CSc1nnc(-c2ccccc2F)n1N
  0.1 | i
> FC(F)Oc1cccc2cccnc12
  -3.5 | i
> COC(=O)c1ccc(Cn2cnc3c(cnn3-c3ccc(C)c(C)c3)c2=O)o1
  0.1 | nt
> O=C(CCn1c(=O)[nH]c2ccsc2c1=O)N1CCc2ccccc2C1
  -1.4 | nt
> CC(C)(C)NC(=O)COC(=O)c1snc(C(=O)NC2CCCCC2)c1N
  1.5 | i
> CC1Cc2nc(SCC(=O)Nc3ccc(F)cc3F)n(C)c(=O)c2S1 (configuration not stated)
  0.5 | i
> CN(C)c1ccc(NC(=O)c2ccc(COc3cccc(Cl)c3)o2)cc1
  -2.3 | nt
> O=C(c1cnc2n(c1=O)CCS2)N(c1ccccc1)C1CCCCC1
  0.4 | nt
> CCCCN(C(=O)c1ccc(Cl)cc1)C1CC2CCC(C1)N2C (configuration not stated)
  -1.6 | i
> Cc1ccc(CN2C(=O)CCC2C(=O)NCCCN2CCCCC2C)cc1 (configuration not stated)
  -4.6 | nt
> CC(C)(C)n1nc2c(c1NC(=O)c1ccc(S(=O)(=O)N3CCCC3)cc1)CS(=O)C2 (configuration not stated)
  -1.9 | nt
> CCN(CC)CCCn1c(=S)[nH]c2cc(Cl)ccc2c1=O
  -0.1 | i
> CCOC(=O)c1[nH]c2ccc(OC)cc2c1N=CN(C)C
  -1.1 | nt
> COc1ccc(-c2noc(CCCC(=O)O)n2)cc1
  -1.0 | i
> Cc1cc2cc(CNC(=O)NC3CCCCC3)ccc2[nH]1
  ? | nt
> COc1cccc(Cn2c(OCC3CCCO3)nc3c2c(=O)n(C)c(=O)n3C)c1 (configuration not stated)
  -1.6 | i
> CCOC(=O)c1cccc(NC(=O)CN2C(=O)C3C4C=CC(C4)C3C2=O)c1 (configuration not stated)
  -2.4 | nt
> O=C(c1ccccc1)c1ccc(N2CCNCC2)cc1
  -1.9 | i
> CCOC(=O)NC(CC(=O)O)c1ccc(OCC)cc1 (configuration not stated)
  -3.4 | nt
> CC1(C)CC(=O)c2sc(NS(C)(=O)=O)nc2C1
  2.4 | i
> CCOC(=O)C1CCCN(C(=O)c2sc3nc(-c4ccccc4)cn3c2C)C1 (configuration not stated)
  1.2 | i
> CSc1ccccc1NC(=O)CN(Cc1ccccc1)S(C)(=O)=O
  -1.7 | i
> CC(=O)N1CCc2cc(C(=O)CN3CCN(C(=O)c4ccco4)CC3)ccc21
  -6.8 | nt
> COCCCNc1oc(-c2ccccc2F)nc1C#N
  0.1 | nt
> O=C(NCc1ccco1)C1CCC(CNS(=O)(=O)c2cccc3cccnc23)CC1 (configuration not stated)
  0.3 | nt
> COC(=O)CCC(=O)Nc1ccc(NC(C)=O)cc1
  -0.6 | nt
> COc1ccc(CCNC(=O)c2noc3c2CCCC3)cc1OC
  -0.5 | nt
> O=C(C1CCCN(S(=O)(=O)c2cccs2)C1)N1CCN(C2CCCCC2)CC1 (configuration not stated)
  -1.1 | nt
> Cc1cc(N2CCN(c3ccccc3)CC2)n2nnnc2n1
  1.3 | nt
> CCCc1cc(=O)n2[nH]c(-c3ccccc3)cc2n1
  -0.9 | nt
> Cc1ccc2[nH]c(=O)c(CN(CCc3ccccc3)Cc3nnnn3CC3CCCO3)cc2c1 (configuration not stated)
  -2.4 | i
> Cc1cccc(-n2nc3c(c2NC(=O)CCC2CCCCC2)CS(=O)C3)c1C (configuration not stated)
  -0.6 | i
> Cc1ccc(S(=O)(=O)N2CCN(Cc3nc4ccccc4n3C)CC2)cc1
  0.6 | nt
> CCc1n[nH]c2c1C(=O)CC(C)(C)C2
  -5.4 | i
> O=S(=O)(NCc1ccc2c(c1)OCO2)c1cnc[nH]1
  1.3 | nt
> CCOC(=O)C1CCN(C(=O)c2c(-c3c(F)cccc3Cl)noc2C)CC1
  0.2 | nt
> CC1(c2ccncc2)Nc2ccccc2-c2nc3ccccc3n21 (configuration not stated)
  1.6 | i
> Cc1c(C(=O)O)nn(-c2ccccc2)c(=O)c1C#N
  0.3 | nt
> COc1ccc(NC(=O)c2oc3ccccc3c2NC(=O)c2ccc(OC)c(OC)c2)c(OC)c1
  -2.2 | nt
> CC(C)=CCC(C)(C)C1OCCN1C(=O)c1ccccc1 (configuration not stated)
  0.4 | i
> CCOc1cccc(C2c3c(oc4cc(C)c(C)cc4c3=O)C(=O)N2CCCN(C)C)c1 (configuration not stated)
  -0.6 | nt
> CN(C)S(=O)(=O)N1CCN(S(=O)(=O)c2ccc(F)cc2)CC1
  -1.5 | i
> c1ccc(-c2nn3c(Cn4nnc5ccccc54)nnc3s2)nc1
  2.6 | i
> CCCNC(=O)C1=C(C)C(=O)OC12CCC(C)CC2 (configuration not stated)
  -0.6 | i
> CCCNC(=O)c1[nH]c(C)c(C(C)=O)c1C
  0.4 | nt
> Cc1[nH]nc2nc3c(c(OC(=O)c4ccccc4)c12)c(=O)n(C)c(=O)n3C
  0.1 | nt
> CC(C)C1N=C2c3ccccc3N=C(SCC(=O)c3ccc(O)c(O)c3)N2C1=O (configuration not stated)
  -7.2 | nt

Next results
Results follow in this order: Proteasome disasm | VCAM-1 up
> O=C(O)C1C2CCC(O2)C1C(=O)NCCC1=CCCCC1 (configuration not stated)
  5.6 | i
> CCCCCn1c(CN2CCN(c3cc(Cl)ccc3C)CC2)nc2c1c(=O)[nH]c(=O)n2C
  0.1 | nt
> Cc1cc(NS(=O)(=O)c2ccc(NC(=O)Nc3ccc4c(c3)OCO4)cc2)no1
  -2.9 | i
> C=C(C)CSc1nnc2[nH]c(=O)cc(N)n12
  0.4 | i
> Cc1cccc(N(C)C(=S)Oc2ccc3ccccc3c2)c1
  -0.8 | i
> Cc1ccc(NC(=O)CSc2nnc(CSc3nc(C)cc(C)n3)n2Cc2ccco2)c(C)c1
  -3.7 | i
> O=S(=O)(NC1=NCCC1)c1cccs1
  0.8 | i
> Cc1cccc(-n2ncc3c(NCCCn4ccnc4)ncnc32)c1
  -4.9 | i
> O=C(COc1ccc2ccccc2c1)N1CCCC1
  1.3 | i
> Cc1ccc(CCNC(=O)C2CCCN(c3nc4ccccc4o3)C2)cc1 (configuration not stated)
  1.0 | nt
> Cc1cc2ccccc2n1CCNC(=O)C1CCCC1
  -2.7 | nt
> Cc1ncoc1C(=O)Nc1ccccc1-c1ccccc1
  -3.3 | nt
> O=C(Nc1ccc2c(c1)OCO2)c1cccc2c1C(=O)N(Cc1cccnc1)C2
  -0.8 | nt
> CCOc1ccccc1-n1c(SCC(=O)NC2CCCC2)nnc1-c1ccoc1C
  -0.8 | i
> CCN(CC)CCNC(=O)C1c2ccccc2C(=O)N(C)C1c1cn(C)c2ccccc12 (configuration not stated)
  -2.2 | nt
> CCOC(=O)N1CCN(C(=O)c2ccc(CNS(=O)(=O)c3ccc(C)cc3)cc2)CC1
  -1.8 | nt
> Cc1nc2ccccc2n1CCC(=O)Nc1cccc(F)c1
  0.2 | i
> COc1ccc(-c2nc(CSCC(=O)N3CCC(C(N)=O)CC3)c(C)o2)cc1OC
  0.3 | nt
> N#CCSCC(=O)Nc1ccc(F)cc1
  -0.6 | i
> CCOC(=O)CN1C(=O)C(CC)Oc2ccccc21 (configuration not stated)
  -0.1 | nt
> Nc1[nH]nc2nc(N3CCCC3)nc(-c3ccccc3)c12
  -1.0 | i
> O=C(c1ccco1)N1CCN(CC(=O)N2CCCc3c2c(=O)oc2ccc(O)cc32)CC1
  3.6 | nt
> CC(C)Oc1ccc(C(CC(=O)O)NC(=O)C2CCCCC2)cc1 (configuration not stated)
  -0.1 | nt
> Cc1ccc2[nH]c(=O)c(CN(CCCO)S(=O)(=O)c3c(C)ccc4nsnc34)cc2c1
  1.4 | i
> CC(=O)N1CCc2ccc(C(=O)CN3CCN(c4cccc(C)c4C)CC3)cc21
  1.5 | nt
> O=C(c1cc2ccccn2n1)N1CCCC1
  5.0 | nt
> CCc1ccc(NC(=O)CCn2c(=O)oc3ccccc32)cc1
  -1.1 | nt
> Oc1ccccc1C1=Nc2nc3ccccc3n2C(c2ccccc2)C1 (configuration not stated)
  -1.3 | i
> CCN1CCCC1CNC(=O)CSc1cc(=O)n(C)c2cc(Cl)ccc12 (configuration not stated)
  -0.9 | nt
> Cn1c(=O)c2cc(S(=O)(=O)NC(C(=O)NCc3cccnc3)c3ccccc3)ccc2n(C)c1=O (configuration not stated)
  3.2 | nt

Among those listed so far, 4 have a cyano group.
Results follow in this order: Proteasome disasm | VCAM-1 up
> Cc1ccc(C2CC(=O)NC(SCC(=O)OCc3ccccc3)=C2C#N)o1 (configuration not stated)
  -1.1 | nt
> COCCCNc1oc(-c2ccccc2F)nc1C#N
  0.1 | nt
> Cc1c(C(=O)O)nn(-c2ccccc2)c(=O)c1C#N
  0.3 | nt
> N#CCSCC(=O)Nc1ccc(F)cc1
  -0.6 | i

Next part
Results follow in this order: Proteasome disasm | VCAM-1 up
> CCN1CCN(C(=O)C2CC(c3ccc(F)cc3)=NO2)CC1 (configuration not stated)
  -2.2 | i
> Cc1ccc(C)c(SCC(=O)Nc2nnc(-c3ccccc3)o2)c1
  -2.8 | i
> CCOC(=O)CNC(=O)CSc1ncnc2c1cnn2Cc1ccccc1
  1.0 | i
> N#Cc1ccc(-c2csc(NC(=O)C3CC3)n2)cc1
  -1.1 | i
> COc1ccc(NC(C)=O)cc1NC(=O)CN1CCN(C2c3ccccc3-c3ccccc32)CC1
  0.5 | nt
> O=C(Nc1ccccn1)N1CCOCC1
  -0.3 | i
> COc1ccccc1OCc1nc2ccccc2[nH]1
  0.8 | i
> COC(=O)c1ccccc1NC(=O)C1CCCCC1C(=O)O (configuration not stated)
  0.9 | i
> CCC1CCCCN1CCCNC(=O)COc1cc(=O)n(C)c2ccccc12 (configuration not stated)
  -1.1 | nt
> CCC(=O)OCCn1c(=O)c2cc3c(=O)n(CCOC(=O)CC)c(=O)c3cc2c1=O
  1.7 | i
> Cc1noc(/C=C/N(C)C)c1S(=O)(=O)N1CCCC(C(=O)NCCC2=CCCCC2)C1 (configuration not stated)
  0.4 | i
> O=C1c2ccncc2C(=O)N1CO
  -0.9 | nt
> O=P1(O)C=C(c2ccccc2)NC(c2ccccc2)=C1
  -1.8 | i
> CCOC(=O)CSc1nc2ccccc2n1C(=O)OCC
  -48 | nt
> CCC1Oc2ccccc2N(CC(=O)NCCCN2CCC(C)CC2)C1=O (configuration not stated)
  -9.3 | nt
> O=C(CCCCCn1c(=O)[nH]c2ccccc2c1=O)N1CCN(Cc2ccc3c(c2)OCO3)CC1
  -2.7 | nt
> O=C(O)c1ccccc1S
  -0.7 | i
> CCOC(=O)N1CCC(NC(=O)CCC(=O)N2CC(C)Oc3ccccc32)CC1 (configuration not stated)
  -1.1 | nt
> CC(C[N+](C)(C)C)OC(N)=O (configuration not stated)
  -0.2 | i
> CCOc1cc(C(=O)NCc2ccncc2)cc(OCC)c1OCC
  -2.1 | i
> Cc1cc2ncn(S(=O)(=O)c3ccc(S(=O)(=O)N4CCOCC4)cc3)c2cc1C
  0.8 | i
> O=C(Nc1ccc2c(c1)OCO2)OCc1ccccc1
  2.1 | i
> CC1=C(C(=O)N(C)Cc2ccccc2)C2(CCC(C)CC2)OC1=O (configuration not stated)
  0.4 | nt
> Cc1ccc(S(=O)(=O)Cc2ccc(C(=O)NCc3ccc4c(c3)OCO4)o2)cc1
  1.3 | i
> Cc1ccc(NC2c3ncccc3C(=O)N2C2CCCCC2)cc1C (configuration not stated)
  -1.3 | i
> COc1ccc(-n2ccsc2=S)cc1
  -0.1 | nt
> COCCNC(=O)CSc1nc(-c2ccc(OC)c(OC)c2)cc(C(F)(F)F)n1
  -3.3 | i
> CCN(CCCNC(=O)CCCCn1c(=O)[nH]c2ccccc2c1=O)c1ccccc1
  -3.0 | nt
> COc1ccccc1OCCOc1ccccc1/C=N/n1cnnc1
  -1.2 | i
> COc1ccccc1-n1c(CNC(=O)c2ccco2)nnc1SCC(=O)Nc1ccc(F)cc1
  0.3 | nt
> O=C(Cc1ccccc1)N(c1ccc(F)cc1)C1C=CS(=O)(=O)C1 (configuration not stated)
  -0.2 | nt
> Cc1cccc(N2CCN(C(=O)Cn3nc(Cc4ccncc4)c4ccccc4c3=O)CC2)c1C
  -0.9 | i

2 compounds picked at random from those above, as already listed:
Results follow in this order: Proteasome disasm | VCAM-1 up
> O=C(O)c1ccccc1S
  -0.7 | i
> O=P1(O)C=C(c2ccccc2)NC(c2ccccc2)=C1
  -1.8 | i
